GIV-Gai inh: GIV-Galpha-i interaction inhibition; P08753; Galpha-i3/FITC-GIV peptide fluorescence polarization, 90 min; hits give low values; scaled: aluminum fluoride 0%, vehicle 100%; percent of control (FP), % (test concentration not listed); 0.42% of 210,000 active;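 active = replicate mean at 85% of control or lower, very high polarization wells dropped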;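 also: wells of about 15 µL received 100 nL stock; the first replicate is given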
Target sequence (P08753 whole entry, looked up): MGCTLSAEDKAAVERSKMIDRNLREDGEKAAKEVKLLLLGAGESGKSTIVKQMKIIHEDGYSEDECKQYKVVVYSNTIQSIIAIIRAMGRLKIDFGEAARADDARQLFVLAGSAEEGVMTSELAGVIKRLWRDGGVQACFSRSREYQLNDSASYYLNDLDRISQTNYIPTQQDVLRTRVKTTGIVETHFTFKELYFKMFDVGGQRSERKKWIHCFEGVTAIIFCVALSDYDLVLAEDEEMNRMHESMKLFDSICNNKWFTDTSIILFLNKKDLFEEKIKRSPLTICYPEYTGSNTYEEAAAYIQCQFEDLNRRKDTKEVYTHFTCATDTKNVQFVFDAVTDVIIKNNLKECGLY
HCMV UL50-53 inh: cytomegalovirus nuclear egress complex inhibition | 0.15% of 190,000 active | inhibition, % (test concentration not listed) | HTRF UL50-UL53 interaction, normalized percent inhibition;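 active = both replicates at 50% or more, plus weaker picks with an unusually low signal ratio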;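 also: stock transfer was 100 nL into about 20 µL; 0% = negative control wells and 100% = wells with untagged competitor protein; inactives centre near -12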
Sa growth 42C: blocks Staphylococcus aureus growth; 0.53% of 170,000 active; relative growth, % (test concentration not listed); S. aureus RN4220 growth, OD600, 20 h, 42 °C; hits give low values;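 active = growth at 42 °C up to 50% and 20 or more points under that at 30 °C, or under 10% at both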;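 also: 300 nL library stock went into each well; scaled to the means of positive and negative controls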
Sa growth 42C second temp: further read-out of Sa growth 42C, marked with its call; relative growth, %; measured here: growth at 30 °C;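 optical density after 20 h as mean of two plates; 100% = untreated growth and lower means inhibition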
Starred values were filed as active, the others as inactive; . = not tested or not shown.

SMILES	GIV-Gai inh	HCMV UL50-53 inh	Sa growth 42C	Sa growth 42C second temp
COc1ccc2nc(NS(=O)(=O)c3ccc(C)cc3)c(Nc3cc(Cl)ccc3OC)nc2c1	230	-10	100	65
O=C(c1ccc2c(c1)OCO2)N(Cc1cccs1)C1(C(=O)NC2CCCC2)CCCCC1	95	.	88	72
COC(=O)c1cc(=O)n2c(n1)sc1cc(OC)ccc12	98	-19	86	85
CCn1cc(-c2nc(-c3ccccn3)no2)c(=O)c2cc(F)c(N3CCOCC3)cc21	100	-36	.	.
CCOC(=O)c1oc2ccccc2c1CN(C)CCc1ccccc1	94	-10	89	112
CCCN1CCN(CCCNC(=O)c2cnn(-c3ccc(F)cc3)c2-n2cccc2)CC1	101	.	117	90
CCCn1nnc2cc(S(=O)(=O)N3CCCC(C(=O)N4CCCC4)C3)ccc21 (stereo not given)	107	-12	.	.
COc1ccc(NC(=O)Cn2ccn(-c3ccccc3)c(=O)c2=O)cc1	97	-22	100	93
Cn1c(SCC(=O)Nc2ccc(F)cc2)nc2c([nH]c3ccccc32)c1=O	106	.	108	96
O=C(c1cc2ccccc2oc1=O)N1CCN(c2ccc(F)cc2)CC1	110	-48	91	89
COc1ccc(-c2cn3nc(N4CCCC(C(=O)NCc5ccccc5C)C4)sc3n2)cc1 (stereo not given)	102	.	139	48
Cc1csc(NC(=O)C2CCCN(c3ncnc4onc(C)c34)C2)n1 (stereo not given)	102	7	.	.
COc1ccc(-c2noc(N(C)CC(=O)Nc3ccc(Oc4ccccc4)cc3)n2)cc1	105	-4	102	90
CCN(c1ccccc1)S(=O)(=O)c1ccc(NC(=O)c2cc(=O)c3cc(C)cc(C)c3o2)cc1	101	-26	103	86
N[C@@H](CC1CCCCC1)C(=O)O	94	32	96	91
O=S1(=O)CCN2C=CC=NC2=N1	.	-36	77	88
Brc1ccc(CSc2nnc(C3CCNCC3)o2)cc1	104	1	.	.
O=C(Nc1ccc(F)cc1F)c1ccc(-n2cnc3cccnc32)cc1	108	.	98	76
Cc1cc(C)n(C(C)CC(=O)Nc2ccc(Cl)cc2C)n1 (stereo not given)	94	.	81	82
COc1cccc(-c2nc(-c3ccc(NC(=O)c4cccnc4)cc3)no2)c1	106	-34	107	94
CCCOc1ccc(Cc2nnn(CC(=O)O)n2)cc1	106	-18	91	84
Cc1cc(C)c(NC(=O)Nc2csc3c2CCCC3)c(C)c1	101	-10	100	83
Cc1ccc(NC(=O)N2CCN(c3ccc(=O)n(-c4ccc(F)cc4)n3)CC2)cc1	101	-39	.	.
N#Cc1c(C(F)(F)F)cc(-c2ccccc2)[nH]c1=O	97	-17	101	77

Arranged by molecular weight (falling): some entries from above
SMILES	GIV-Gai inh	HCMV UL50-53 inh	Sa growth 42C	Sa growth 42C second temp
COc1ccc2nc(NS(=O)(=O)c3ccc(C)cc3)c(Nc3cc(Cl)ccc3OC)nc2c1	230	-10	100	65
CCN(c1ccccc1)S(=O)(=O)c1ccc(NC(=O)c2cc(=O)c3cc(C)cc(C)c3o2)cc1	101	-26	103	86
COc1ccc(-c2cn3nc(N4CCCC(C(=O)NCc5ccccc5C)C4)sc3n2)cc1 (stereo not given)	102	.	139	48
O=C(c1ccc2c(c1)OCO2)N(Cc1cccs1)C1(C(=O)NC2CCCC2)CCCCC1	95	.	88	72
CCCN1CCN(CCCNC(=O)c2cnn(-c3ccc(F)cc3)c2-n2cccc2)CC1	101	.	117	90
COc1ccc(-c2noc(N(C)CC(=O)Nc3ccc(Oc4ccccc4)cc3)n2)cc1	105	-4	102	90
CCn1cc(-c2nc(-c3ccccn3)no2)c(=O)c2cc(F)c(N3CCOCC3)cc21	100	-36	.	.
Cc1ccc(NC(=O)N2CCN(c3ccc(=O)n(-c4ccc(F)cc4)n3)CC2)cc1	101	-39	.	.
CCCn1nnc2cc(S(=O)(=O)N3CCCC(C(=O)N4CCCC4)C3)ccc21 (stereo not given)	107	-12	.	.
Cn1c(SCC(=O)Nc2ccc(F)cc2)nc2c([nH]c3ccccc32)c1=O	106	.	108	96
COc1cccc(-c2nc(-c3ccc(NC(=O)c4cccnc4)cc3)no2)c1	106	-34	107	94
Cc1csc(NC(=O)C2CCCN(c3ncnc4onc(C)c34)C2)n1 (stereo not given)	102	7	.	.
Brc1ccc(CSc2nnc(C3CCNCC3)o2)cc1	104	1	.	.
O=C(c1cc2ccccc2oc1=O)N1CCN(c2ccc(F)cc2)CC1	110	-48	91	89
COc1ccc(NC(=O)Cn2ccn(-c3ccccc3)c(=O)c2=O)cc1	97	-22	100	93
O=C(Nc1ccc(F)cc1F)c1ccc(-n2cnc3cccnc32)cc1	108	.	98	76
Cc1cc(C)c(NC(=O)Nc2csc3c2CCCC3)c(C)c1	101	-10	100	83
Cc1cc(C)n(C(C)CC(=O)Nc2ccc(Cl)cc2C)n1 (stereo not given)	94	.	81	82
COC(=O)c1cc(=O)n2c(n1)sc1cc(OC)ccc12	98	-19	86	85
CCCOc1ccc(Cc2nnn(CC(=O)O)n2)cc1	106	-18	91	84
N#Cc1c(C(F)(F)F)cc(-c2ccccc2)[nH]c1=O	97	-17	101	77
O=S1(=O)CCN2C=CC=NC2=N1	.	-36	77	88
N[C@@H](CC1CCCCC1)C(=O)O	94	32	96	91

(listing goes on)
SMILES	GIV-Gai inh	HCMV UL50-53 inh	Sa growth 42C	Sa growth 42C second temp
CN(C)c1ccc(Nc2cc(N3CCC(=O)CC3)c3noc4c3c2C(=O)c2ccccc2-4)cc1	106	-32	89	92
CCNc1nnc(CSc2nc3ccccc3s2)s1	.	-2	116	78
Cc1cc(C(F)(F)F)n2ncnc2n1	.	-24	97	90
CCNC(=S)N/N=C/C1=CCC2CC1C2(C)C (stereo not given)	.	-23	68	56
COc1ccc(Br)cc1C(=O)Nc1c(-n2cnnc2)nn(C)c1C	103	9	.	.
CCN1C(=O)C(C(=O)O)C(=O)c2ccccc21 (stereo not given)	.	6	107	90
Cc1cccc(NS(=O)(=O)c2nnc(NC(=O)C3CCCCC3)s2)c1	107	-9	113	91
O=C(NCc1ccccc1Cl)C1CCN(c2nc3ccccc3n(Cc3ccccc3)c2=O)CC1	105	-41	.	.
O=C(O)c1c[nH]c(=O)n(-c2ccccc2F)c1=O	104	-8	108	95
CC(OC(=O)C1CC1)C(=O)Nc1cccc(Cl)c1 (stereo not given)	.	-30	109	97
CC(=O)NCCNc1nc2c(-c3ccc(Cl)cc3)nnn2c2ccccc12	97	.	87	92
COc1ccccc1CNC(=O)CCC1N=C2c3ccccc3N=C(SCC(=O)Nc3ccc(N(C)C)cc3)N2C1=O (stereo not given)	100	.	97	91
COc1ccc(-n2c(=O)c3ccccc3n(CC(=O)NCCc3ccccc3)c2=O)c(OC)c1	105	-9	103	86
Cc1ccc(CNC(=O)c2c(Nc3ccccc3C)sc(C(=O)c3ccc(F)cc3)c2N)cc1	102	.	92	98
O=C(CSc1nc2ccccc2o1)NC(=O)NC1CCCC1	.	-3	78	96
Cc1cc(C)n2c3c(c(C#N)c2n1)CCCC3	104	-56	85	90
N#CCc1ccc(NC(=O)CSCc2ccccc2)cc1	106	2	103	89
C=CCn1c(=S)sc2c(=O)n(CC(=O)Nc3ccc(C)c(C)c3)cnc21	.	-9	88	76
COc1cc(/C=C(\C#N)C(=O)OC(C)(C)C)cc(OC)c1	100	-32	85	91
NNC(=O)c1cc2cc(OC(F)(F)F)ccc2[nH]1	102	-24	88	82
CCSc1ncc(Cl)c(C(=O)NCc2ccccc2)n1	107	.	110	104
COc1ccc(-c2nn3c(=O)cc(CNC(=O)Nc4ccc5c(c4)OCO5)nc3s2)cc1	105	-33	.	.
Cc1cc(C)cc(NS(=O)(=O)c2ccc(-c3cc(C)no3)cc2)c1	101	.	108	103
N#Cc1c(-c2ccccc2)cc2c(c1N)c(=O)oc1ccccc12	93	-14	93	83
O=C(Nc1ccc(F)cc1)C1CCN(S(=O)(=O)c2ccc3c(c2)CCCN3C(=O)C2CCC2)CC1	109	.	110	91
CCCSCCCNC(=O)C1CCN(c2nn3cc(-c4ccc(F)cc4)nc3s2)CC1	98	.	108	83
CC1=C(C(=O)Nc2ccc(Br)cn2)C(c2ccc([N+](=O)[O-])cc2)C2=C(CC(C)(C)CC2=O)N1 (stereo not given)	101	-23	.	.
CCC(C(=O)Nc1ccccc1OC)n1c(SCc2cccc(F)c2)nc2ccncc21 (stereo not given)	99	4	122	71
CN(C)c1ccc(NC(=O)c2ccccc2Cl)c(C(=O)O)c1	97	-11	.	.
CCCn1nc(C(=O)NCC2COc3ccccc3O2)c2ccccc2c1=O (stereo not given)	.	-10	94	83
CCOC(=O)NC1(C(F)(F)F)NC(=O)N(c2ccc(C)c(C)c2)C1=O (stereo not given)	99	4	85	92
CN(CC(=O)N1CCN(c2ccccc2)CC1)S(=O)(=O)c1ccc2c(c1)CCC(=O)N2	103	1	117	87
O=C1CSC(=O)N1CCOc1ccc(F)cc1	101	-15	93	78
Nc1c(C(=O)N/N=C/c2ccc3c(c2)OCO3)cnn1-c1ccccc1	106	-34	95	90
CCC(C)(C)n1nnnc1C(c1ccccc1)N1CCc2ccccc2C1 (stereo not given)	106	-9	104	98
Cn1c(C(=O)Nc2ccccc2F)cc2c(=O)oc3ccccc3c21	106	-4	.	.
O=C1NCC(c2ccccc2)Oc2ccccc21 (stereo not given)	106	9	89	93
CC1CCCN(CN2C(=O)C3(OCC(C)(c4ccccc4)CO3)c3ccccc32)C1 (stereo not given)	100	-20	.	.
CC1CCN(C(=S)NC2CCCCC2)CC1	108	-10	82	77
O=C(/C=C/c1ccccc1)Nc1nnc(-c2ccc3c(c2)CCCC3)o1	106	-6	21	23
CCN1CCN(CC(=O)c2ccc(C)cc2)CC1	.	2	83	94
COc1cccc2cc(C(=O)N3CCC(C)CC3)c(=O)oc12	104	6	100	100
O=C(CCc1nnc2n(Cc3ccccc3Cl)c(=O)c3ccccc3n12)Nc1ccc(F)cc1	99	-25	93	86
COc1ccc(-c2cc3ccc(O)c(CN4CCCC(C)C4)c3oc2=O)cc1OC (stereo not given)	124	.	92	92
CCC(=O)Nc1ccccc1-c1nc2ccccc2n(C(CC)C(=O)Nc2cccc(C(C)=O)c2)c1=O (stereo not given)	99	19	111	75
CC1CCN(c2ccc(-c3cccc(NS(=O)(=O)c4ccc(Cl)s4)c3)nn2)CC1	103	.	103	93
CCC(C)c1ccc(NC(=O)CSc2ncn[nH]2)cc1 (stereo not given)	.	-29	87	78
O=C(OCCS(=O)(=O)c1ccccn1)c1cccc(Cl)c1	109	-7	90	94
Cn1c(=O)c(-c2noc(C(=O)N3CCN(c4ccccc4)CC3)n2)nn(-c2ccccc2)c1=O	103	-122	.	.
Cc1ccc(-n2ncc3c(NCCc4ccc(S(N)(=O)=O)cc4)ncnc32)cc1	104	.	127	81
CCN(CC)S(=O)(=O)c1cc(C(=O)Nc2ccccc2C)ccc1C	110	.	117	88
S=c1[nH]c(-c2ccccc2)cn1/N=C/c1cccs1	.	-39	103	88
CCCC12CN3CC(C)(CN(C1)C3c1cn(CC)c3ccccc13)C2=O (stereo not given)	98	-26	87	84
CCCCc1ccc(C(=O)N/C(=C\c2ccc(C)cc2)C(=O)NC2CCCCC2)cc1	101	-19	97	94
O=C(CSc1nc2c([nH]c3ccccc32)c(=O)n1-c1ccccc1)N1CCCC1	105	.	100	77
COc1ccc(OC)c(C2C3=C(CC(c4ccccc4)CC3=O)Nc3onc(C)c32)c1 (stereo not given)	100	-1	.	.
O=S(=O)(c1ccc2c(c1)CCCC2)N1CCC2(CC1)Nc1ccccc1-n1cccc12	110	18	.	.
CC1Cc2ccccc2N1C(=O)c1cc(-c2cccnc2)on1 (stereo not given)	104	-14	.	.
COC(=O)CSc1nnc2n(-c3ccc(OC)cc3)c(=O)c3c4c(sc3n12)CCCCC4	105	-19	.	.
O=C(NC1CCCC1)C(c1ccc(O)cc1)N(C(=O)Cn1nnc(-c2cccs2)n1)C1CCCC1 (stereo not given)	100	1	91	94

Screening data: PubChem, ICCB-Longwood Screening Facility, Harvard Medical School
